# Bioassay records (PubChem BioAssay)
# AID504770 = E. coli YBA685 growth inhibition, screen for V. cholerae RctB inhibitors | E. coli YBA685 rctB-dependent plasmid, OD600 growth, 3 h; stronger effect = lower value | z-score (no concentration beside the values) | 130,000 compounds, 0.27% hits | AID 504770;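 active = z-score under -2 on both plates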;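 also: wells of about 30 µL received 100 nL stock; score is relative to mean and SD of the test wells; the first replicate is given; strong numbers were not always called active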
# Ba CapD inh = CapD enzyme inhibition | purified CapD enzyme, fluorescence intensity read-out; stronger effect = lower value; some hits fall short of the stated cut | z-score (no concentration beside the values) | 140,000 compounds, 0.23% hits | AID 492967;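 active = z-score under -4 in either of two replicates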;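 also: stock transfer was 100 nL into about 40 µL; score is relative to mean and spread of the plate; one replicate is shown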
# Starred values were filed as active, the others as inactive; . = no result given.
# Each structure is followed by: AID504770	Ba CapD inh
O=C(c1cnn2c(C(F)(F)F)cc(-c3ccccc3)nc12)N1CCN(c2ccccc2)CC1
    -0.3	0.48
Cc1ccc2nc(-c3ccc(S(=O)(=O)N(C)C)cc3)cn2c1
    -0.25	112
O=C(CSc1nnc(-c2ccccn2)c(-c2ccccn2)n1)c1ccc(N2CCCC2=O)cc1
    -0.15	.
c1ccc(COC2CCNCC2)cc1
    -0.9	.
CC(=O)Nc1ccc(NC(=O)C(Cc2ccccc2)NC(=O)C2CCCCC2)cc1 (configuration not stated)
    -0.05	55.7
CCCc1nc(N)c(C#N)c(-c2ccc(F)cc2)c1CC
    -0.3	.
Cc1cc(C)n2ncc(C(=O)NCCC3=CCCCC3)c2n1
    0.2	23.1
OC1CCNC2CCCCC12 (configuration not stated)
    0.85	.
Cc1ccc2c(c1)c1c3n2CCN(CC(O)COc2ccccc2C)C3CCC1 (configuration not stated)
    .	0.835
O=C(NCCC1=CCCCC1)c1cnsn1
    -0.95	0.51
Cc1ccc(S(=O)(=O)Nc2ccc(-c3csc(-c4ccccc4)n3)cc2)cc1
    0.15	-0.69
O=C1OCCC1Sc1ncnc2ccccc12 (configuration not stated)
    -0.55	.
CNC(=O)c1ccsc1NC(=O)c1ccc(S(C)(=O)=O)cc1
    0.3	.
O=C(O)C(Cc1cnc[nH]1)N1C(=O)C2C3c4ccccc4C(c4ccccc43)C2C1=O (configuration not stated)
    -1.15	.
CC1(C)NCS[C@H]1C(=O)O
    -1.8	-0.075
O=C(CN1C(=O)c2ccccc2S1(=O)=O)c1ccccc1
    .	-1.37
NCCCCCc1nnc(SCC(N)=O)o1
    -0.55	.
O=c1[nH]cnc2c1nc(N1CCN(CCO)CC1)n2C1OC(CO)C(O)C1O (configuration not stated)
    .	1.29
O=C1CSC(c2cccs2)N1c1ccc(Oc2ccccc2)cc1 (configuration not stated)
    .	-0.08
COc1ccc(C2Oc3c(OC)cccc3C3CC(c4cccnc4)=NN32)cc1 (configuration not stated)
    .	0.97
CC(=O)c1cc(F)ccc1OC(=O)c1c(-c2c(Cl)cccc2Cl)noc1C
    .	0.04
O=C(NC(c1ccccc1)c1ccc(Cl)cc1)OCCc1ccccc1Cl (configuration not stated)
    .	-0.415
CCC(C(=O)N1CCCC1)n1nc(C)n2c(cc3occc32)c1=O (configuration not stated)
    -1.45	-0.735
CCCN1CC2(COC)CC[C@H](OC)[C@@]34CC[C@H](COC)[C@@H](O)C[C@@](C)(O)C(O)([C@@H](OC)[C@H]23)[C@H]14
    -0.75	-0.12
CC(CCc1ccccc1)NC(=O)CCn1c(=O)sc2ccccc21 (configuration not stated)
    -0.2	0.695
N#CC1=C(SCC(=O)Nc2ccc(Br)cc2)NC(=O)CC1c1cccc2ccccc12 (configuration not stated)
    .	0.05
CN1CC=C(/C=C/C2=CC[C@H]3C[C@@H]2C3(C)C)CC1
    -1.05	.
O=C(CC1N=C2c3ccccc3N=C(SCc3ccccc3F)N2C1=O)NC1CCCCC1 (configuration not stated)
    0.25	0.185
CCOC(=O)c1c(C=O)oc2c(C)cc(OC(=O)c3cc(Cl)cc(Cl)c3)c(Br)c12
    .	-0.125
CCc1ccc(N(CC)c2ncnc3nc[nH]c23)cc1
    -0.5	-0.52
CC1CC(C)CN(c2c3c(nc4cc(-c5ccc(F)cc5)nn24)CCC3)C1 (configuration not stated)
    -0.45	.
O=c1cc(C(F)(F)F)c2cc(Cl)c(O)cc2o1
    -0.1	-0.41
N#CC1=C(SCC(=O)Nc2ccc(Br)cc2)NC(=O)CC1c1cccs1 (configuration not stated)
    .	0.175
CN(C)CCC(O)c1ccccc1 (configuration not stated)
    -0.25	-0.675
CCOc1ccc(NC(=O)c2c(NC(=O)C(F)(F)F)sc3c2CCC3)cc1
    .	-0.405
c1ccc(Nc2nc(-c3ccncc3)cs2)cc1
    2.55	.
Clc1ccc(OCc2ccc(-c3csnn3)cc2)cc1
    0.3	-0.71
O=S(=O)(N=S(N1CCCCC1)N1CCCCC1)c1ccccc1
    2.6	-0.775
COc1cccc2[nH]ccc12
    0.3	1.73
Cc1cc(C(=O)N2CCC(C)CC2)c(C)n1-c1ccc(F)cc1
    0.35	.
CC(=O)c1ccc(Oc2ccc(Cl)cc2Cl)cc1
    .	-1.25
CN(CCOc1ccccc1)CCOc1ccccc1
    1.5	.
COc1cc(/C=C\C(=O)Nc2c3c(nn2-c2ccc(Cl)cc2)CSC3)cc(OC)c1OC
    .	7.04
S=c1nc[nH]c2c1sc1nc(N3CCOCC3)c3c(c12)CCCC3
    0.65	-0.195
CC1(C)CC(=O)C(N=Nc2ccccc2C(F)(F)F)=C(O)C1
    -0.85	-1.83
N#Cc1c(-c2ccccc2)oc2c1C(=O)c1ccccc1C2=O
    0.35	6.45
CCCNC(=O)c1ccc(OCC)cc1
    -0.2	0.75
O=C(NC(N1CCOCC1)(C(F)(F)F)C(F)(F)F)c1ccccc1
    -0.45	-1.07
CSc1ncc(C(=O)N/N=C/c2ccnc3ccccc23)n1C
    .	4.25
O=C(COC(=O)c1ccc(Oc2ccccc2)cc1)NCc1ccccc1
    0.2	-0.29
CCCCc1ncc(CO)[nH]1
    -0.35	0.53
CCN(Cc1ccccc1)C(=O)CSc1nc2ccccc2c2nc3ccccc3n12
    0.95	-2
CCn1cc(C(=O)Nc2ccccc2Br)c(=O)c2cc(F)c(N3CCN(C(C)=O)CC3)cc21
    -0.7	.
CCc1nc(N)c(C#N)c(-c2ccccc2)c1C
    1.05	11.3
CCN(CC)c1nc(SCCOC(=O)Nc2ccccc2)nc(N(CC)CC)n1
    0.95	-0.98
O=C(Oc1ccc(-c2nnco2)cc1)C1=CC=CN2CCS(=O)(=O)N=C12
    0.45	.
CN(C(=O)COC(=O)c1cnc(Cl)c(Cl)c1)c1ccccc1
    -0.1	0.435
Cc1ccc(NC(=O)CN2C(=O)OC(C)(C)C2(C)O)cc1 (configuration not stated)
    -0.95	-0.64
Cc1cccc(Nc2ccncc2S(=O)(=O)NC(=O)NC(C)C)c1
    -0.2	-1.31
COc1ccc(N=c2oc3ccccc3cc2C(=O)Nc2ccccc2OC)cc1
    .	-0.61

# Next section:
# Each structure is followed by: AID504770	Ba CapD inh
CCCN(CC1CC1)C(=S)Nc1cccc(C)c1C
    -0.35	0.155
Cc1ccc(Nc2nc3nonc3nc2NCCO)cc1
    .	-1.53
COc1ccc(/C=C2\C(=O)N(C(C)=O)CC(=O)N2Cc2ccccc2)cc1
    .	0.35
CC1OS(=O)OC1(c1ccccc1)c1ccccc1 (configuration not stated)
    -1.35	-0.18
Cc1ccc2nc(SCc3ccccc3C#N)[nH]c2c1
    -1	-0.465
CCNc1ccc(OC)cc1
    -0.9	0.245
NC1=NC(=O)CC(C(=O)Nc2ccc(Br)cc2)S1 (configuration not stated)
    0.45	19.5
O=C(O)CCCc1ccc(/C=N/O)s1
    1.85	0.43
COc1ccc(NC(=O)C(CC(C)C)NS(=O)(=O)c2ccc3c(c2)oc(=O)n3C)cc1 (configuration not stated)
    -0.8	-0.34
N#Cc1ccccc1S(=O)(=O)N1CCCCCCC1
    .	-0.405
Cc1cc(/C=C2\SC(=O)N(Cc3ccc(Cl)cc3)C2=O)c(C)n1-c1cccnc1
    .	-0.2
CC1OCN(c2ccc(OC(F)(F)F)cc2)Cn2c1nc1ccccc12 (configuration not stated)
    -0.15	0.99
COc1cc2c(cc1OC)C1N(CC2)C(C(=O)c2cccs2)=NN1c1ccccc1 (configuration not stated)
    0.35	32.2
Cc1ccc(C(=O)COC(=O)Cc2ccccc2)cc1
    1.55	-0.705
O=C(Cc1ccccc1)Nc1ccc(-c2cn3cccnc3n2)cc1
    -0.75	-0.5
COc1cc(OC)cc(C(C)(C)OC(=O)N2CCC[C@H]2C(=O)O)c1
    -0.05	0.355
CN(C)C=NC(=O)c1cc(OCC(F)(F)F)ccc1OCC(F)(F)F
    .	4.78
CCC1CCC(N(CC)CCN(C)C)CC1 (configuration not stated)
    1.2	0.05
O=C(NNC(=O)c1cc(Cl)ccc1Cl)OCCCCCc1ccccc1
    .	-1.26
O=C(O)/C=C/C(=O)N1CCCC(C(F)(F)F)C1 (configuration not stated)
    1.9	-0.98
COC(=O)C1=CN(C23CC4CC(CC(C4)C2)C3)C=C(C(=O)OC)C1c1cccc(OC)c1
    2.5	-1.61
CCc1ccc(NC(=O)Cn2nc(CC)n3c(cc4cc(C)ccc43)c2=O)cc1
    -0.05	0.975
COC(=O)c1nn(C)c(=O)c2ccccc12
    -0.75	.
CC(=O)OCC(=O)C1CCC2C3CC=C4CC(O)CCC4(C)C3CCC12C (configuration not stated)
    -1.2	0.27
NC(=S)NCCc1ccccc1
    -0.25	.
COc1cccc(/C=C(\C#N)C(=O)c2ccc(C(C)(C)C)cc2)c1O
    .	-1.79
COC1OC(COC(c2ccccc2)(c2ccccc2)c2ccccc2)C(OC(C)=O)C(OC(C)=O)C1OC(C)=O (configuration not stated)
    .	0.015
CO/N=C/NC(=O)c1cc(OCC(F)(F)F)ccc1OCC(F)(F)F
    .	0.505
CN(C)S(=O)(=O)Oc1ccc(C(=O)Nc2ccccc2Cl)cc1Cl
    .	0.19
O=C(Nc1ccc(F)cc1)c1ccccc1NC(=S)Nc1ccccc1Cl
    .	1.29
CCOc1ccc2c(c1)C(=NNC(=O)c1ccncc1)c1cc(OCC)ccc1-2
    .	-0.05
Cc1nc(C(F)(F)F)ccc1-c1nnc(SCCCN2C(=O)c3ccccc3C2=O)o1
    -0.75	-0.725
Cc1nc2sc(-c3ccccc3)cc2c(=O)o1
    -0.6	1.36
Cc1nn(-c2ccccc2)c2sc(C(=O)NCc3cccnc3)cc12
    0.45	.
CC(C)c1ccc(NC(=S)N2CCCC(c3ccc(F)cc3)=N2)cc1
    0.3	-1.24
CC(Sc1nc(N)cc(=O)[nH]1)C(=O)Nc1nc2ccccc2s1 (configuration not stated)
    -0.45	.
O=C(CSCC(=O)N1CCCCC1)Nc1nc(-c2cccs2)cs1
    -0.85	0.255
CN1CCN(C2=NC(C(=O)Nc3ccccc3)CC(=O)N2)CC1 (configuration not stated)
    2.15	-0.34
CN(C)c1cccc(N(C)C)c1CNC(=O)c1ccccc1Cl
    -0.75	-1.1
CCc1ccc(NC(=O)CCNS(=O)(=O)c2ccc3c(c2)CC(C)N3C(C)=O)cc1 (configuration not stated)
    0	0.195
Cc1ccc(-c2noc(CN(C)C(=O)CCN3C(=O)C4CC=CCC4C3=O)n2)cc1 (configuration not stated)
    -0.45	-0.375
CC1CCC(NC(=O)CSc2ccc(S(=O)(=O)N(C)C)cn2)CC1 (configuration not stated)
    0.7	.
NN1C(=O)CSC1=Nc1ccccc1
    -0.6	0.085
O=C(Cc1csc(-c2ccccc2)n1)NNC(=O)OCc1ccc(C#Cc2ccccc2)s1
    .	0.325
Cc1cccc(C)c1NC(=O)CS(=O)CC(=O)Nc1ccc(F)c(F)c1 (configuration not stated)
    -0.35	.
COc1ccc(-n2nc(C(=O)N(C)c3ccc(OC)cc3OC)c3c4ccccc4n(C)c3c2=O)cc1
    -0.8	-0.275
CCOc1ccc(-n2c(=O)[nH]c3sc4c(c3c2=O)CCC4)cc1
    -0.75	-0.065
C=CCNC(=O)C12CC3CCC1(C)C3(C)CO2 (configuration not stated)
    .	-0.245
Cc1cc2oc(=O)cc(Cn3nnc(-c4ccc(F)cc4)n3)c2cc1C
    -1.25	.
O=S1(=O)CCC(SSC2CCS(=O)(=O)C2)C1 (configuration not stated)
    -1	.
O=C(CSc1c(-c2ccccc2)c2cc(Cl)ccc2[nH]c1=O)N1CCCCC1
    1.3	-0.665
O=C(O)CCN1C(=O)NC2(CCCCC2)C1=O
    0.9	.
COc1ccc(NCc2nnc3n2CCCCC3)cc1
    -1.35	.
CCCNC(=O)c1ccc(-n2c(C)cc3c2CCCC3)cc1
    2.45	-0.695
CN(C)C1N(C(=O)c2ccccc2Br)N=C2c3ccccc3S(=O)(=O)N21 (configuration not stated)
    .	-0.285
Cn1c(=O)c2c(nc(SCc3ccc(F)cc3)n2C)n(C)c1=O
    -0.9	0.12
COc1ccc(-c2ccnc3c(C#N)cnn23)cc1
    -0.8	49.3
COCC(C)NC(=O)Cn1nc(C)c(NC(=O)c2cc(-c3ccc(OC)c(OC)c3)no2)c1C (configuration not stated)
    -0.1	-0.87
COCCOC(=O)C1=C(C)NC(C)=C(C(=O)OCCOC)C1c1cn(-c2ccccc2)nc1-c1cccc([N+](=O)[O-])c1
    .	-0.705
